# Screens from PubChem BioAssay.
# GIV-Gai inh: inhibitors of GIV peptide binding to Galpha-i3, primary screen, biochemical, fluorescence polarization, FITC-GIV GBA peptide, rat Galphai3. Guanine nucleotide-binding protein G(i) subunit alpha-3 (Rattus norvegicus), P08753. 90 min; hits give low values; scaled: aluminum fluoride 0%, vehicle 100%. percent of control (FP), % (concentration not given with the values). 210,000 compounds, 0.42% hits. AID 1224905, 2016;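 active = replicate mean at 85% of control or lower, very high polarization wells dropped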;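 also: wells of about 15 µL received 100 nL stock; the first replicate is given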
# Target sequence (P08753 whole entry, looked up): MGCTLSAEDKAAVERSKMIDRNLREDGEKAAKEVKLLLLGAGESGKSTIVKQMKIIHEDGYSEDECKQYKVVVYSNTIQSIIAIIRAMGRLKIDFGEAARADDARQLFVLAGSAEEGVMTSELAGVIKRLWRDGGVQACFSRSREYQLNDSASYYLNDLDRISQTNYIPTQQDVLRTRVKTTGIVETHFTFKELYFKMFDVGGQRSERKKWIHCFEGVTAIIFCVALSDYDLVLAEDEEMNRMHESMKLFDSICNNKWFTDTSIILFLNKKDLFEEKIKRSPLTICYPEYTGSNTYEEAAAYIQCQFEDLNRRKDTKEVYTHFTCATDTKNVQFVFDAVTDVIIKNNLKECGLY
# HCMV NEC inh: inhibitors of HCMV UL50-UL53 interaction, biochemical, HTRF | HCMV UL50-UL53 nuclear egress complex (human cytomegalovirus) | normalized percent inhibition | inhibition, % (test concentration not listed) | 190,000 compounds, 0.15% hits | AID 1918969, 2023;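 active = both replicates at 50% or more, plus weaker picks with an unusually low signal ratio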;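 also: stock transfer was 100 nL into about 20 µL; 0% = negative control wells and 100% = wells with untagged competitor protein; inactives centre near -12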
# Sa growth inh: S. aureus growth inhibition at 42 and 30 °C, primary screen, LtaS inhibitor project, RN4220, two temperatures; OD600, 20 h, 42 °C; hits give low values; relative growth, % (test concentration not listed); 170,000 compounds, 0.53% hits;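 active = growth at 42 °C up to 50% and 20 or more points under that at 30 °C, or under 10% at both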;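 also: 300 nL library stock went into each well; scaled to the means of positive and negative controls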
# Sa growth inh second temp: further read-out of Sa growth inh, marked with its call; relative growth, %; measured here: growth at 30 °C;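 optical density after 20 h as mean of two plates; 100% = untreated growth and lower means inhibition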
# Starred values were filed as active, the others as inactive; . = no result given.
# Order of results – GIV-Gai inh, HCMV NEC inh, Sa growth inh, Sa growth inh second temp
(1) CC(Nc1ccc(-c2nc(-c3ccco3)no2)cc1[N+](=O)[O-])c1ccccc1 (stereo unspecified)
  103, 4, 99, 87
(2) Cc1c(C)n(C(=O)CSc2nc3ccccc3s2)c2ccccc12
  108, ., 97, 92
(3) O=C(NCCc1ccccc1)c1ccc2c(c1)NC(=O)C1CCCN21 (stereo unspecified)
  160, ., 110, 84
(4) COc1ccc2[nH]c3c(=O)n(Cc4ccc(C(=O)NCCc5ccc(C)cc5)cc4)c(=S)[nH]c3c2c1
  102, ., 112, 86
(5) COCCNCc1ccc(-c2cc(Cl)ccc2Cl)o1
  102, -15, ., .
(6) Cc1ccc(-c2ccc(=O)n(-c3c(C)noc3C)n2)cc1S(=O)(=O)Nc1ccc(Cl)cn1
  106, -40, ., .
(7) Cn1c2ccccc2c2cnn(CC(=O)NCCN3CCCCCC3)c(=O)c21
  107, -2, 98, 94
(8) Cc1cccc(CC(=O)N2CC(=O)Nc3ccc(C)cc3C2c2ccc(F)cc2)c1 (stereo unspecified)
  103, -2, 101, 82
(9) COc1ccc(CNC(=O)CN2C(=O)COc3ccc(S(=O)(=O)N4CCC(C)CC4)cc32)cc1
  107, ., 124, 86
(10) CC(C)c1ccc(CNc2nc3nc(CN4CCCC4)cc(=O)n3[nH]2)cc1
  101, 1, ., .
(11) COc1ccc(NC(=S)NC2CCCCC2)cn1
  ., -1, 95, 91
(12) CCn1cc(-c2cc(C(=O)O)no2)cn1
  108, 6, 103, 79
(13) O=C(Nc1ccc(CN2CCS(=O)(=O)CC2)cc1)c1ccccc1
  104, 0, 102, 95
(14) CCN(CC)c1cc(C)c2cc(NC(=O)/C=C/c3cc(OC)c(OC)c(OC)c3)ccc2n1
  102, -2, 83, 47
(15) CCc1ccc2oc(-c3cc(NC(=O)C(C)C)cc(C)c3O)nc2c1
  104, -15, 85, 90
(16) COC(=O)c1cc(C)sc1NC(=S)Nc1cnn(C)c1C(N)=O
  109, -5, 110, 91
(17) CCOc1ccc(CCNC(=O)C2CCN(C(=O)N3CC(CC)Oc4ccc(C)cc43)CC2)cc1 (stereo unspecified)
  102, -1, 112, 94
(18) Nc1nc(Nc2ccccc2)sc1C(=O)c1ccc(Br)cc1
  138, -4, ., .
(19) Cc1cc(/C=N/N=C2\C(=O)Nc3ccccc32)c(C)n1CC(C)C
  ., -5, 89, 95
(20) O=C(O)c1ccc(O)c(Br)c1
  ., 0, 104, 93
(21) c1ccc2[nH]c(C3CCN(c4nn5cnnc5c5ccccc45)CC3)nc2c1
  99, -22, ., .
(22) CC1CCN(S(=O)(=O)c2cn(CC(=O)Nc3ccc(F)cc3)c(=O)c3ccccc23)CC1
  105, -7, 112, 92
(23) CCC(C(=O)N1CCN(c2ccc(F)cc2)CC1)N1CCN(Cc2ccc(F)cc2)C(=O)C1=O (stereo unspecified)
  104, -3, ., .
(24) CCn1c(SCC(=O)N2CCCCC2)nnc1-c1ccc(S(=O)(=O)N2CCCC2)cc1
  101, 9, 85, 120
(25) O=C(NC1C(=O)NN(c2ccccc2)C1c1ccc(Cl)cc1)c1ccco1 (stereo unspecified)
  ., -36, 108, 80
(26) CCCCNC(=O)c1cc2cccc3c2n1CC(CC)O3 (stereo unspecified)
  109, -13, ., .
(27) CCc1ccccc1NC(=O)CN(c1ccc(OC)cc1)S(=O)(=O)c1c(C)n[nH]c1C
  106, -26, 94, 87
(28) CCn1nc(C(=O)OC)c2ccccc2c1=O
  ., -9, 82, 87
(29) O=C1C(=O)N(C2CCN(S(=O)(=O)c3ccc4c(c3)CCCC4)CC2)CCN1Cc1ccc(F)cc1
  103, -14, ., .
(30) O=C(O)CCSc1nc(-c2ccccc2)cc(=O)[nH]1
  98, 17, 89, 112
(31) CCOC(=O)c1oc2ccc(S(=O)(=O)N3CCN=C3N3CCN(c4cccc(Cl)c4)CC3)cc2c1C
  101, -30, ., .
(32) Cc1ccc(C2(c3ccc(C)o3)CCCCC2)o1
  102, -6, 94, 73
(33) CSc1nnc(C2CCCN2CC(=O)NC(c2ccccc2)c2ccccc2)n1C (stereo unspecified)
  98, -10, 116, 92
(34) CC1CCCCN1c1nnc(NC(=O)NCc2ccccc2)s1 (stereo unspecified)
  113, 4, 112, 48
(35) O=C(NCCc1ccc(Cl)cc1)c1ccc(CSc2nc3ccncc3[nH]2)cc1
  101, -16, ., .
(36) O=C(NC1CCCC1)c1ccc(Nc2nc3ccccc3n3nnnc23)cc1
  118, -20, 84, 87
(37) O=C(CCCCn1c(=O)c2ccccc2n(Cc2cccc(F)c2)c1=O)NCc1ccc2c(c1)OCO2
  109, -19, 96, 91
(38) O=c1[nH]c2ccc(NCc3ccccc3Cl)cc2[nH]1
  98, -17, ., .
(39) CCCc1c(C)nc(N2CCN(c3ccccc3F)CC2)[nH]c1=O
  104, -14, ., .
(40) COc1ccc(NC(=O)CCS(=O)(=O)c2nc(-c3ccc4c(c3)OCO4)cc(C(F)(F)F)n2)cc1OC
  111, -10, 100, 79
(41) CCC1CCCCN1C(=O)C1=CC(c2ccccc2OC)=NS(=O)(=O)N1C (stereo unspecified)
  102, -26, ., .
(42) CCCN1C(=O)C(Cc2nc3ccccc3c(=O)n2CC)c2cc(Br)ccc21 (stereo unspecified)
  99, -22, 115, 58
(43) CCN(CC)C(=O)Cn1cc(/C=C2/C(=O)N(C)c3ccccc32)c2ccccc21
  104, ., 93, 82
(44) Cc1ccc(C2C3=C(CC(c4ccccc4)CC3=O)Nc3onc(C)c32)cc1 (stereo unspecified)
  112, -16, ., .
(45) Cc1cccc(CSc2ncc(Cl)c(C(=O)Nc3nc4ccc(F)cc4s3)n2)c1
  105, -6, 107, 92
(46) CCOc1ccc(C(=O)C(C)OC(=O)c2cccnc2N2CCCC2)cc1 (stereo unspecified)
  ., 14, 88, 82
(47) CC(=O)Nc1ccc(NC(=O)CN2C(=O)CCc3cc(S(=O)(=O)N4CCCCC4)ccc32)cc1
  99, ., 84, 85
(48) O=C(c1cnc(N2CCOCC2)c2ccccc12)N1CCN(c2ccc(F)cc2)CC1
  108, ., 102, 93
(49) Cc1nn(C)c(C)c1N1C(=O)c2cccc3c(Br)ccc(c23)C1=O
  99, -98, 104, 98
(50) CCn1c2c(c(SCc3ccccc3C)nc1=O)CCC2
  104, -10, ., .
(51) COc1ccc2c(c1)CC/C(=C/c1cccc(O)c1)C2=O
  ., -2, 120, 96
(52) CCOc1cc(CO)cc(Cl)c1OCC(=O)Nc1ccccc1OC
  100, 5, 97, 97
(53) Fc1ccc(NC(=S)N2CCN=C2Nc2ccc(F)cc2)cc1
  106, -26, 95, 79
(54) CCc1nn2c(=O)cc(COC(=O)c3ccc(NC(=O)COc4ccc(C)cc4)cc3)nc2s1
  105, ., 83, 93
(55) Cc1ccc(C)c(CSc2nnc(-c3sc4ncccc4c3N)n2C)c1
  103, -7, ., .
(56) O=C1CC(c2cccs2)CC(O)=C1C=Nc1ccccc1Cl (stereo unspecified)
  100, -4, 110, 87
(57) COC(=O)/C(C(C)=N)=C(\O)CSc1nnnn1-c1ccc(Cl)cc1
  ., -17, 101, 84
(58) CC1CCN(C(=O)CN2c3ccc(C(C)C)cc3-c3ccccc3S2(=O)=O)CC1
  102, -10, 98, 97
(59) C=CCNc1sc(N)c(C#N)c1C(=O)c1ccc(Br)s1
  ., -16, 92, 81
(60) CCCSC1=C(C#N)C(c2cccs2)CC(=O)N1 (stereo unspecified)
  ., -14, 107, 76

# Continuation:
# Order of results – GIV-Gai inh, HCMV NEC inh, Sa growth inh, Sa growth inh second temp
(61) COc1ccc(NCc2cccn2-c2nnc(N3CCCCC3)s2)cc1OC
  103, ., 82, 84
(62) CC1CC(C)(C)NC(=S)N1CC(=O)Nc1ccc(Cl)cc1 (stereo unspecified)
  104, -34, 93, 65
(63) CCOc1ccccc1NC(=O)CCS(=O)(=O)c1ccc2c(c1)CCN2C(C)=O
  101, 5, 95, 88
(64) Cc1cccc(N2C(=O)CSC(C)C2=O)c1 (stereo unspecified)
  93, -10, ., .
(65) CCSc1nnc2c(n1)OC(c1ccc(C)s1)Nc1ccccc1-2 (stereo unspecified)
  88, -19, 101, 84
(66) CC1(C)CC(=O)C2=C(C1)OC1=C(C(=O)CC(C)(C)C1)C2c1cccc(OC(=O)c2ccccc2F)c1
  105, -23, ., .
(67) CN(Cc1ccccc1)C(=O)CSc1nnnn1C
  ., -33, 100, 93
(68) O=C(OCc1ccc(Cl)cc1Cl)C1CCC1
  ., -6, 84, 90
(69) COC(=O)c1scc(-c2ccccc2)c1S(=O)(=O)N1CCC(C(N)=O)(N2CCCCC2)CC1
  104, -18, ., .
(70) CC1(C)CN(c2ccc(I)cc2)C1=O
  94, -18, ., .
(71) CNC(=O)c1cc(I)c(OC)c(OC)c1
  108, 2, 101, 101
(72) O=C(NCc1ccc2c(c1)OCO2)C1CCCN(S(=O)(=O)N2CCOCC2)C1 (stereo unspecified)
  105, -19, ., .
(73) O=c1nc2sc3ccccc3n2c(=O)n1-c1ccc(Cl)cc1
  104, -12, 96, 86
(74) Cc1cccc(CSc2cn(CC(=O)N3CCCC3)c3ccccc23)c1
  105, ., 100, 60
(75) Cc1noc(-c2ccccc2O)n1
  105, -7, 96, 82
(76) CCOc1ccc(-c2cc3nc(C4CCN(C(=O)OC(C)(C)C)CC4)c(C(=O)Nc4ccc(C)c(F)c4)cn3n2)cc1
  107, -30, 106, 90
(77) O=C(COc1ccccc1O)N1CCCCC1
  ., 19, 101, 102
(78) O=c1ccn(Cc2ccccc2)c(=O)[nH]1
  108, -7, 88, 83
(79) COc1ccc2c(c1)OC(O)(C(F)(F)F)CC2=O (stereo unspecified)
  105, ., 62, 66
(80) CC(C)(C)c1[nH]oc(=O)c1N=O
  104, -36, 50, 0
(81) CC1=C(C(=O)Nc2cccnc2)C(c2cccc(Br)c2)n2nc(SCc3ccccc3)nc2N1 (stereo unspecified)
  103, -4, 89, 90
(82) CCOC(=O)c1csc2ncc(C#N)c(=O)n12
  102, 6, 100, 90
(83) CCOC(=O)c1ccc2c(c1)nc(SCC(=O)NC(C)C(C)C)n2CC (stereo unspecified)
  ., -8, 94, 89
(84) CN1CCC(N(C)Cn2ncn(-c3ccccc3)c2=S)CC1
  ., -36, 88, 95
(85) CCCOc1ccc(CNC(=O)C2=C(c3ccccc3)c3cc(Cl)ccc3S(=O)(=O)N2C)cc1
  106, -13, ., .
(86) O=C(NCCc1nc(-c2ccccc2)no1)c1sc2cccc(Cl)c2c1Cl
  114, 2, ., .
(87) CN(C)c1ccc(/C=C2/SC(=O)N(CNc3ccccc3Br)C2=O)cc1
  110, -21, ., .
(88) Cc1ccccc1/C=C(\C#N)C(=O)OC(C)(C)C
  101, -26, 92, 99

# Entries shown so far that contain fluorine (13):
# Order of results – GIV-Gai inh, HCMV NEC inh, Sa growth inh, Sa growth inh second temp
(8) Cc1cccc(CC(=O)N2CC(=O)Nc3ccc(C)cc3C2c2ccc(F)cc2)c1 (stereo unspecified)
  103, -2, 101, 82
(22) CC1CCN(S(=O)(=O)c2cn(CC(=O)Nc3ccc(F)cc3)c(=O)c3ccccc23)CC1
  105, -7, 112, 92
(23) CCC(C(=O)N1CCN(c2ccc(F)cc2)CC1)N1CCN(Cc2ccc(F)cc2)C(=O)C1=O (stereo unspecified)
  104, -3, ., .
(29) O=C1C(=O)N(C2CCN(S(=O)(=O)c3ccc4c(c3)CCCC4)CC2)CCN1Cc1ccc(F)cc1
  103, -14, ., .
(37) O=C(CCCCn1c(=O)c2ccccc2n(Cc2cccc(F)c2)c1=O)NCc1ccc2c(c1)OCO2
  109, -19, 96, 91
(39) CCCc1c(C)nc(N2CCN(c3ccccc3F)CC2)[nH]c1=O
  104, -14, ., .
(40) COc1ccc(NC(=O)CCS(=O)(=O)c2nc(-c3ccc4c(c3)OCO4)cc(C(F)(F)F)n2)cc1OC
  111, -10, 100, 79
(45) Cc1cccc(CSc2ncc(Cl)c(C(=O)Nc3nc4ccc(F)cc4s3)n2)c1
  105, -6, 107, 92
(48) O=C(c1cnc(N2CCOCC2)c2ccccc12)N1CCN(c2ccc(F)cc2)CC1
  108, ., 102, 93
(53) Fc1ccc(NC(=S)N2CCN=C2Nc2ccc(F)cc2)cc1
  106, -26, 95, 79
(66) CC1(C)CC(=O)C2=C(C1)OC1=C(C(=O)CC(C)(C)C1)C2c1cccc(OC(=O)c2ccccc2F)c1
  105, -23, ., .
(76) CCOc1ccc(-c2cc3nc(C4CCN(C(=O)OC(C)(C)C)CC4)c(C(=O)Nc4ccc(C)c(F)c4)cn3n2)cc1
  107, -30, 106, 90
(79) COc1ccc2c(c1)OC(O)(C(F)(F)F)CC2=O (stereo unspecified)
  105, ., 62, 66
